Ba CapD inh: Bacillus anthracis CapD inhibitors, primary screen, biochemical, fluorescence intensity | z-score (test concentration not listed) | purified CapD enzyme, fluorescence intensity read-out; hits give low values; some hits fall short of the stated cut | actives 0.23% (n = 140,000);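 active means z-score under -4 in either of two replicates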;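 further: stock transfer was 100 nL into about 40 µL; score is relative to mean and spread of the plate; one replicate is shown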
AID504770: growth inhibition of E. coli YBA685, primary screen, V. cholerae RctB inhibitors. E. coli YBA685 rctB-dependent plasmid, OD600 growth, 3 h; hits give low values. z-score (test concentration not listed). actives 0.27% (n = 130,000). AID 504770, 2011;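 active means z-score under -2 on both plates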;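 further: wells of about 30 µL received 100 nL stock; score is relative to mean and SD of the test wells; the first replicate is given; strong numbers were not always called active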
An asterisk follows results filed as active; . = not tested or not shown.

SMILES	Ba CapD inh	AID504770
O=C(NC(Cc1ccccc1)C(=O)OCc1ccccc1)OCCc1ccccc1F (stereo not drawn)	-0.6	.
O=C(N/N=C/c1cn(-c2ccccc2)nc1-c1cccs1)c1cccs1	14	-0.15
CCOc1ccccc1NC(=O)CS	0.17	1.1
Cn1c(=O)n(C)c2cc(N3CCCCC3)c(NC(=O)C(C)(C)C)cc21	-0.35	0.5
Cc1oc(C(=O)O)cc1CSc1nc2ccccc2[nH]1	-0.065	1.1
COc1cc(/C=C2/N=C(C)OC2=O)cc(OC)c1OC	-0.94	-0.15
Cc1cc(C(=O)OCC(=O)c2ccc3[nH]c(=O)[nH]c3c2)c2ccccc2n1	.	-0.25
CC(C)Cn1c(=O)c2ccccc2c2ccccc2c1=O	-0.53	-0.05
Cc1ccc(C(=O)c2ccccc2C(=O)O)c(C)c1	0.7	0.25
CC1(C)OC(=O)C(=CNc2ccccc2)C(=O)O1	-0.045	-0.3
CCn1c(N)c(C(=O)NC)sc1=S	.	-0.45
N#CC1=C(N)Oc2c(c(=O)oc3ccccc23)C12C(=O)N(CC(=O)O)c1ccccc12 (stereo not drawn)	0.32	.
CCC1(O)CC(C(=O)OC)=NN1C(=O)c1ccccc1 (stereo not drawn)	0.04	-0.25
O=C(O)Cn1c(=O)c(F)cn(C2CCCO2)c1=O (stereo not drawn)	.	-0.05
N#Cc1ccccc1CNCc1cccs1	.	-0.5
COC(=O)C1C(c2ccc(O)cc2)C(C(=O)OC)S(=O)(=O)CS1(=O)=O (stereo not drawn)	0.11	.
CC(=O)N1c2nonc2N(C(C)=O)c2nonc21	-11*	-1.1
CC(=O)Nc1sc2c(c1C(=O)O)CCCC2	-1	-0.15
CCOC(=O)C1=C(c2ccccc2)N=C2SCC(=O)N2C1c1cccc(OC)c1 (stereo not drawn)	0.76	.
CC(=O)n1c(N)nc2ccccc21	-0.48	-0.25
CC12C(=O)N(c3ccc(I)cc3)C(=O)C1C1C=CC2C1 (stereo not drawn)	0.27	-0.05
O=C(N/N=C\c1cccnc1)c1n[nH]c2c1CCCC2	.	0.3
Cc1cc(C)n(CC(=O)NCc2ccccc2)c(=O)n1	-0.4	-0.15
O=C(c1ccc(Cl)s1)N1CCc2ccccc2C1	-0.75	2.8
O=C1C2CC=CCC2C(=O)N1CCOc1cccc(Br)c1 (stereo not drawn)	.	1.5
Cc1ccccc1Nc1nc(N)nc(COC(=O)CCCN=C2NS(=O)(=O)c3ccccc32)n1	.	0.65
O=C1COc2ccc(C(=O)NCc3ccc4c(c3)OCO4)cc2N1	-0.45	-1.1
COc1cc2c(cc1OC)C1=NC(=O)CN1C(SCc1ccc(C)cc1)=N2	6.7	.
CSc1nnc(SCC(=O)c2ccc3c(c2)OCCO3)s1	-0.33	2.3
CSc1ncc(C(=O)N/N=C/c2csc([N+](=O)[O-])c2)n1C	0.72	.
O=C(OCC(=O)N(C1CCCCC1)C1CCCCC1)c1ccco1	0.37	0.85
Cc1cc(C)nc(N(C(=O)C2CC2)c2cccc(Cl)c2Cl)n1	0.09	.
CCOC(=O)C1=C(CN(C)c2ccccc2)NC(=O)NC1c1ccc(C)cc1 (stereo not drawn)	0.3	-2.2
O=C(Cn1cnc2ccccc2c1=O)N1CCCCCC1	.	1.4
O=[N+]([O-])c1cccc(Cc2nc3ccccc3nc2SCCN2CCOCC2)c1	0.36	.
CCSc1nnc(Cc2ccccc2)o1	-0.34	-0.85
Cc1ccc(CNC(=O)CCS(=O)(=O)c2ccc3c(c2)NC(=O)CO3)cc1	-0.23	0.15
Cc1cc(NC(=O)c2ccc3nonc3c2)no1	0.19	.
O=C1CN(C(=O)CCC(=O)c2ccc(Br)cc2)CCN1	.	1.9
O=C1CSC(c2cn(-c3ccccc3)nc2-c2ccccc2)N1Cc1ccccc1 (stereo not drawn)	-0.57	.
CSc1nsc(SC)c1C(=O)Oc1ccccc1N1CCOCC1	0.66	2.6
CCCc1cc(=O)n(-c2nc3ccccc3s2)[nH]1	-0.095	-0.4
Cc1nn(-c2ccccc2)c(N2CCCC2)c1/C=N/N=c1\sc2ccccc2n1C	.	-0.1
CC(C)C(NC(=O)Cc1c[nH]c2ccccc12)C(=O)NCCc1cnc[nH]1 (stereo not drawn)	0.34	.
CCOC(=O)c1sc(NC(=O)COc2ccccc2)c(SC#N)c1C	1.5	-0.75
CCc1ccc(NC(=O)Nc2nnc(N3CCCCC3)s2)cc1	0.15	1
Nc1ccc2oc3c(c2c1)CCCC3	.	0.4
CS(=O)(=O)N1CCN(c2ccccc2NC(=O)c2ccc(F)cc2)CC1	0.58	.
CCC12CN3CC(CC)(CN(C1)C3c1cccc(N)c1)C2=O (stereo not drawn)	-0.19	0.15
CCc1cccc(NS(=O)(=O)c2ccc3c(c2)N(C)CCO3)c1	0.7	-0.05
COCCN1C(=O)c2ccccc2C1=O	-0.8	1.6
Cc1sc(N2C(=O)C3C4C=CC(C4)C3C2=O)c(C#N)c1C (stereo not drawn)	-0.12	0.45
O=C(Cn1nnc(-c2ccc(CN3CCOCC3)cc2)n1)Nc1ccccc1F	.	-0.35
C=CCc1cccc2cc(C(=O)Nc3cccc(OC)c3)c(=O)oc12	-0.33	1.1
COC(=O)C1C(=O)C2=C(CC1C)Nc1ccccc1NC2c1ccc(C)cc1 (stereo not drawn)	.	-0.1
c1ccc(-c2nc(N3CCCC3)nc(-n3ccnc3)n2)cc1	-0.71	1.9
O=C(OCC1OC(n2ccc(=O)[nH]c2=O)C(O)C1OC(=O)c1ccccc1)c1ccccc1 (stereo not drawn)	.	0.25
Cc1ccc2c(c1)C1CN(C)CCC1N2C(=O)CCCCCN1C(=O)c2ccccc2C1=O (stereo not drawn)	-0.24	.
CC(=O)c1c(C)oc2ccc(N(C(=O)c3cccc([N+](=O)[O-])c3)S(=O)(=O)c3ccccc3)cc12	0.44	.
CN(CCOc1ccc(Cl)cc1)Cn1nnc2ccccc2c1=O	.	-0.15

Complete entries from above.
`O=C(OCC1OC(n2ccc(=O)[nH]c2=O)C(O)C1OC(=O)c1ccccc1)c1ccccc1` (stereo not drawn) reads Ba CapD inh: .; AID504770: 0.25
`CN(CCOc1ccc(Cl)cc1)Cn1nnc2ccccc2c1=O` reads Ba CapD inh: .; AID504770: -0.15

The list goes on:
SMILES	Ba CapD inh	AID504770
O=S(=O)(c1ccc(Cl)cc1)c1cnc2cc(-c3ccc(Cl)cc3)nn2c1	-0.64	.
Clc1ccc(CCN2COc3cc4c(cc3C2)OCO4)c(Cl)c1	-0.2	0.15
O=S(=O)(c1cccc(-c2cn3ccccc3n2)c1)N1CCCCC1	0.48	-1.4
CN1/C(=C/C(=O)c2ccccc2)Sc2ccccc21	1.7	0.55
O=C(CC1Oc2ccccc2NC1=O)Nc1cc(Cl)cc(Cl)c1 (stereo not drawn)	-0.39	-0.3
Cc1nc(-c2ccc3c(c2)OCCO3)cs1	.	0.3
O=C(c1ccco1)n1nnc2cc(Cl)ccc21	0.26	-1
CC1CCN(S(=O)(=O)c2ccc(NC(=O)Nc3ccccc3)cc2)CC1	.	-0.1
Cc1ccc(S(=O)(=O)NC(=O)OC(C)c2sc3ncnn3c2C)cc1 (stereo not drawn)	0.06	.
C=C(C)CSc1nnc2n(-c3ccccc3C)c(=O)c3c4c(sc3n12)CCCC4	-0.34	.
Cc1ccc(S(=O)(=O)n2nccc2-c2c(C)nc3ccccn23)cc1	9.8	1.4
O=C1N/C(=N/N=C\c2[nH]ncc2Br)SC1c1ccccc1 (stereo not drawn)	-0.1	-1
C=CCN(CC=C)C(=O)c1ccc(N2C(=O)c3ccccc3C2=O)cc1	0.38	-0.55
O=S1(=O)CC=C(Sc2ccccc2)C1	0.35	-1.4
CC(=O)NCCSc1c(-c2ccc(C)cc2)[nH]c2ccccc12	109	-0.55
CCOc1cc(C=C2C(=O)NC(=S)NC2=O)ccc1OCCOc1ccc(C)cc1	-0.57	.
Cc1ccccc1N1C(=O)NC(=O)/C(=C\c2cn(CC(=O)N3CCOCC3)c3ccccc23)C1=O	0.77	-0.05
CCn1cnc2cc(NCc3cccc(Br)c3)ccc21	8.7	-1.6
O=C(NCc1ccc(-c2csnn2)cc1)C1CC1	0.45	0.35
COc1ccc(Cc2nnc(SCC(=O)Nc3ccc(S(=O)(=O)N4CCCCCC4)cc3)o2)cc1	.	-1
COc1cc(C(=O)NNC(=O)OCC2CCCN(Cc3cc(OC)c(OC)cc3Br)C2)ccc1O (stereo not drawn)	0.06	.
CN(C)/C=N/NC(=O)c1cc(COc2cc(Cl)cc(Cl)c2)on1	-0.69	0.8
O=S(=O)(N/N=C/c1ccc(Cl)cc1)c1ccc(-c2ccccn2)s1	-0.63	.
COc1ccc(CNC(=O)C2CCCN2C(=O)NCc2ccccc2)cc1 (stereo not drawn)	.	-0.4
O=C(COc1ccccc1)Nc1nccs1	0.27	-0.85
c1cncc(CNC2CC2)c1	.	-0.3
N/C(=N\O)c1cccc([N+](=O)[O-])c1	-0.43	.
COc1cccc(OC)c1C(=O)Nc1nnc(CC(C)(C)C)s1	0.43	-0.25
N#CC1=C(SCC(=O)Nc2ccc(Br)cc2)NC(=O)CC1c1cccc([N+](=O)[O-])c1 (stereo not drawn)	-0.27	.
Cc1cc2c(cc1S(=O)(=O)N1CCCC1)n(C)c(=O)c(=O)n2C	15	-0.3
O=C(NCCN1CCN(C(=O)c2cccc(C(F)(F)F)c2)CC1)c1cccc(C(F)(F)F)c1	0.61	0.3
CC(C)N(Cc1ccccc1)C(=O)Cn1c(=O)oc2ccccc21	.	-0.3
O=c1c(-c2cccs2)nc2ccccc2n1C1CCCCC1	.	0
O=C(CCCSc1nc2ccc(Cl)cc2s1)c1ccc(F)cc1	0.65	-0.35
CCCCN1C(=O)c2cccc3c(Cl)ccc1c23	-0.55	-0.5
C=CCn1c(Cc2ccccc2)nc2ccccc21	-0.04	-0.7
COc1cc2c(C(=O)N3CCCCCC3)cn(C)c(=O)c2cc1OC	0.62	0.2
CCCCOC(=O)c1sc2nc3c(c(-c4ccco4)c2c1N)CCCC3	0.24	.
CC1CC(C)CN(C(=O)CCCc2nnc3n(C)c(=O)c4sccc4n23)C1 (stereo not drawn)	0.65	0
O=C(Nc1ccccc1C(=O)N1CCC(c2c[nH]c3ccccc23)CC1)c1cccs1	-0.37	.
CC1c2snnc2-c2cc(Cl)ccc2S1(=O)=O (stereo not drawn)	-0.045	.
Cc1cccn2c(=O)c3cc(C(=O)NCCCN4CCCC4=O)n(C)c3nc12	.	-0.4
O=C(Cn1cc(/C=C2/C(=O)NC(=O)N(Cc3ccco3)C2=O)c2ccccc21)NCC1CCCO1 (stereo not drawn)	-1.9	-0.35
C/C(=N\O)c1ccc(C)nc1	0.14	.
O=C(NCc1ccc(-n2cccc2)cc1)c1cccs1	-0.04	0.55
CN1CCN(C(=O)CCc2nc3ccccc3n2-c2ccccc2)CC1	.	-0.3
CC1CN(C(=O)COC(=O)c2ccc3ccccc3c2)CC(C)O1 (stereo not drawn)	34	0.35
O=C(c1csc(-c2ccccc2)n1)N(Cc1ccccn1)Cc1ccccn1	-0.38	-0.7
CCOc1ccccc1/C=N/NC(=O)c1cccc(OC)c1	0.4	.
O=C(CC1NCCN(Cc2ccccc2)C1=O)Nc1ccc(Cl)cc1 (stereo not drawn)	-0.89	.
CSc1sc(C)cc1/C=N/NC(=O)c1nnn(-c2nonc2N)c1-c1ccccc1	18	.
N#CC1=C(N)Oc2n[nH]c(-c3cccc([N+](=O)[O-])c3)c2C1c1c(F)c(F)c(F)c(F)c1F (stereo not drawn)	0.14	.
COc1ccc(COCC(O)CN2CCC(C(N)=O)CC2)cc1 (stereo not drawn)	1.2	1
N#Cc1cnn2c(-c3ccc(Cl)c(Cl)c3)ccnc12	1.2	1.2
O=C(NC1CCCCC1)NC1(C(=O)N2CCN3CCCC3C2)CCCCC1 (stereo not drawn)	.	-1.1
CCOc1ccc(-c2nc(CNCCN3CCOCC3)cs2)cc1OC	.	-0.4
O=C(CSc1ncnc2ccccc12)Nc1ccccc1C(F)(F)F	-0.74	-0.1
O=C(CSc1nc2cc(Cl)ccc2c(=O)n1Cc1ccco1)c1ccc(Cl)s1	.	1.1
CC1=C(C(=O)OC(C)C)C(c2coc3ccc(C)cc3c2=O)C2=C(CC(c3cccs3)CC2=O)N1 (stereo not drawn)	0.68	.
Cc1ccnc(SCC(=O)c2ccc(Br)cc2)n1	-0.95	-0.1

In the list so far, these contain a Cl atom:
SMILES	Ba CapD inh	AID504770
O=C(c1ccc(Cl)s1)N1CCc2ccccc2C1	-0.75	2.8
Cc1cc(C)nc(N(C(=O)C2CC2)c2cccc(Cl)c2Cl)n1	0.09	.
CN(CCOc1ccc(Cl)cc1)Cn1nnc2ccccc2c1=O	.	-0.15
O=S(=O)(c1ccc(Cl)cc1)c1cnc2cc(-c3ccc(Cl)cc3)nn2c1	-0.64	.
Clc1ccc(CCN2COc3cc4c(cc3C2)OCO4)c(Cl)c1	-0.2	0.15
O=C(CC1Oc2ccccc2NC1=O)Nc1cc(Cl)cc(Cl)c1 (stereo not drawn)	-0.39	-0.3
O=C(c1ccco1)n1nnc2cc(Cl)ccc21	0.26	-1
CN(C)/C=N/NC(=O)c1cc(COc2cc(Cl)cc(Cl)c2)on1	-0.69	0.8
O=S(=O)(N/N=C/c1ccc(Cl)cc1)c1ccc(-c2ccccn2)s1	-0.63	.
O=C(CCCSc1nc2ccc(Cl)cc2s1)c1ccc(F)cc1	0.65	-0.35
CCCCN1C(=O)c2cccc3c(Cl)ccc1c23	-0.55	-0.5
CC1c2snnc2-c2cc(Cl)ccc2S1(=O)=O (stereo not drawn)	-0.045	.
O=C(CC1NCCN(Cc2ccccc2)C1=O)Nc1ccc(Cl)cc1 (stereo not drawn)	-0.89	.
N#Cc1cnn2c(-c3ccc(Cl)c(Cl)c3)ccnc12	1.2	1.2
O=C(CSc1nc2cc(Cl)ccc2c(=O)n1Cc1ccco1)c1ccc(Cl)s1	.	1.1

Compound activity deposited in PubChem by ICCB-Longwood Screening Facility, Harvard Medical School.

Only part of the results is shown; count on the stated rates, not on these rows.
